# Vaccinia Venus: qHTS for Stage-Specific Inhibitors of Vaccinia Orthopoxvirus: Venus Reporter Primary qHTS | Vaccinia virus Venus reporter expression, fluorescence | Potency, µM (series often up to 36.5 µM), inactives show at the highest dose activity change, negative = inhibition, actives largely listed as inhibitors | actives 0.46% (n = 330,000) | AID 720580, 2013; active means well fitted inhibition curve with a large enough effect; inconclusive means small, poorly fitted or top-dose-only effect; inactive means no such curve, though single readings can be large or run the other way; tested in A549 cells; further: nearly all actives have a fitted effect of over 30% in size; inactives centre near -10
# Vaccinia mCherry: qHTS for Stage-Specific Inhibitors of Vaccinia Orthopoxvirus: mCherry Reporter Primary qHTS; Vaccinia virus mCherry reporter infection, fluorescence; about a quarter of the inactives have no number; Potency, µM (series often up to 36.5 µM), inactives show top-dose activity change, negative = inhibition, hits mostly inhibitors; actives 0.63% (n = 310,000); AID 720579, 2013; active = well fitted inhibition curve with a large enough effect; inconclusive = small, poorly fitted or top-dose-only effect; inactive = no such curve, though single readings can be large or run the other way; tested in A549 cells; further: nearly all actives have a fitted effect of over 35% in size; inactives centre near -10
# Starred values were filed as active, the others as inactive; i = inactive; ? = inconclusive; nt = no result given; [ ] = remark or other dose. On the % scale 0 is the no-effect control and ±100 the full control effect; potency means the concentration at half of the fitted maximal effect. Compounds as they come; any-hit rate near 0.88%.
no.	molecule	Vaccinia Venus	Vaccinia mCherry
1	COc1ccc(S(=O)(=O)N2CCOCC2)cc1NC(=O)CN1CCCc2ccccc21	3%	i
2	O=C(NCCC1CCCCN1S(=O)(=O)c1cccs1)C(=O)NCc1ccccc1 (stereo not drawn)	-23%	?
3	NS(=O)(=O)c1cc(C(=O)OCCNC(=O)c2ccccc2)c(Cl)cc1Cl	3%	i
4	COC(=O)[C@]1(CC(C)C)N[C@H](c2ccc(-c3ccc4c(c3)OCO4)cc2)[C@@H]2C(=O)N(C)C(=O)[C@@H]21	-18%	i
5	CC(C)(C)[C@]1(O)CCN2C[C@H]3c4ccccc4CCc4cccc(c43)[C@@H]2C1	?	?
6	O=C(NN1CCOCC1)c1cc(S(=O)(=O)Nc2cccc(C(F)(F)F)c2)ccc1Cl	-16%	i
7	C=CCC[C@@H](Cc1ccc(F)cc1)C(=O)O[C@H](CNC(=O)[C@@H](CC=C)CC(=O)N[C@H](CO)Cc1ccccc1)c1ccccc1	-10%	i
8	CCOC(=O)N1CCN(C(=O)CSc2nnc(-c3cc(OC)ccc3OC)o2)CC1	-27%	-25%
9	COc1cccc(N2CCN(CC(=O)NC(=O)NCc3ccco3)CC2)c1	-16%	-1%
10	CCCCC[C@H](C)N1C[C@H](COCc2ccccc2)Oc2cc(N3CCC[C@H]3C(N)=O)ccc2S1(=O)=O	-5%	-10%
11	O=C(N/N=C/c1ccc(OC(F)F)cc1OC(F)F)c1cccc(S(=O)(=O)N2CCOCC2)c1	-6%	-3%
12	COC(=O)c1cc2oc3ccccc3c2n1Cc1ccc(Cl)cc1	-9%	-6%
13	Fc1ccccc1CNc1nc(NCC2CC2)nc2ccsc12	-14%	i
14	Cc1ccc(C)n1-c1ccc(C(=O)N2CCC(C(N)=O)CC2)cc1	-9%	-8%
15	Cc1ccc(C(=O)NC(C)c2ccc(-n3ccnc3)cc2)cc1 (stereo not drawn)	-2%	3%
16	Cc1ccc(NC(=O)Cn2ccc(=O)[nH]c2=O)cc1	-3%	i
17	Cc1cc(C)c(C(N)=O)c(Nc2cccc(Cl)c2)n1	-15%	-2%
18	Cc1nc2c(sc3nc4c(cc32)COC(C)(C)C4)c(=O)n1Cc1ccccc1	?	nt
19	CC(=O)c1ccc(N2C(=O)[C@@H]3C(C(=O)CCN4C(=O)c5ccccc5C4=O)=NN[C@@H]3C2=O)cc1	-5%	-14%
20	COc1cc2c(cc1OC)C(c1ccccc1[N+](=O)[O-])N(C(C)=O)CC2 (stereo not drawn)	-13%	i
21	CC(C)C(c1nnnn1C1CCCC1)N1CCCCC1 (stereo not drawn)	9%	-2%
22	COc1ccc(-c2nnc(SCc3cccnc3)o2)cc1	-5%	-12%
23	COc1ccc(C(=O)COC(=O)C(CCSC)NC(=O)COc2ccccc2)c(OC)c1 (stereo not drawn)	-3%	i
24	O=c1[nH]nc(N/N=C/c2ccc(Cl)cc2Cl)c(=O)[nH]1	-4%	-21%
25	CC1(C)CC(=O)C(C(C2=C(O)CC(C)(C)CC2=O)c2ccc(O)c([N+](=O)[O-])c2)=C(O)C1	-11%	i
26	Cc1ccc2cc3cc(C(=O)NCCCN4CCCCCC4)oc3nc2c1	4%	i
27	COc1ccc2c(c1)OC[C@H]1[C@H]2N2C(=O)CN(Cc3ccc(Cl)cc3)C(=O)[C@@]2(C)[C@H]1c1ccccc1	-26%	?
28	O=C(O)c1ccc([N+](=O)[O-])c(CS(=O)(=O)c2ccccc2)c1	-26%	-6%
29	Cc1nc(CNC(=O)C2CCC(=O)N(CCc3ccc(Cl)cc3)C2)sc1C (stereo not drawn)	-11%	-1%
30	CC(C)CCn1nnc2sc(-c3ccccc3)cc2c1=O	-16%	-10%
31	COc1ccc(S(N)(=O)=O)cc1C(=O)NCC1(N2CCCCC2)CCCCC1	-29%	-5%
32	O=C(COc1ccc(/C=N/NC(=O)c2cc3ccccc3o2)cc1Cl)Nc1ccccc1	?	?
33	Cn1c(Cl)c(C(=O)Nc2ccc(Cl)cc2)c2ccccc21	?	nt
34	COC(=O)c1ccc(NC(=O)C(=O)NCCc2csc(-c3ccc(C(F)(F)F)cc3)n2)cc1	-11%	-6%
35	CCN(C(=O)COC(=O)/C=C/c1ccc(F)cc1)C1CCCCC1	-8%	-13%
36	O=C(CCCc1cccs1)Nc1nc(-c2ccc(F)cc2)cs1	-28%	-6%
37	CS(=O)(=O)c1ccc(C(=O)NCC2(N3CCOCC3)CCCCC2)cc1	-6%	-10%
38	COc1ccc(C(=O)N2CCCCC2CCN2CCCCC2)cc1 (stereo not drawn)	-7%	-16%
39	CC(C)CC(C)N (stereo not drawn)	-15%	-14%
40	CCOC(=O)C1=C(CNCc2ccccc2)NC(=O)NC1c1ccc(C)cc1 (stereo not drawn)	-12%	-15%
41	Cn1nccc1C(=O)N(CCN1CCCCC1)CC1CCCN(C2CCCC2)C1 (stereo not drawn)	-4%	-10%
42	O=C(Nc1ccccc1F)C1CC1c1ccccc1 (stereo not drawn)	-15%	-14%
43	CC1CCN(c2nc3ccc(C(=O)NCCc4ccc(S(N)(=O)=O)cc4)cc3s2)CC1	9%	3%
44	CCCCn1nnnc1C1(C)CCC(=O)N1Cc1cccc(F)c1 (stereo not drawn)	2%	-3%
45	O=C(CSc1nnc(COc2ccc(Cl)cc2Cl)o1)Nc1ccccn1	-9%	-6%
46	CCOC(=O)C1(CCc2ccccc2)CCN(Cc2ccc3c(c2)OCCO3)CC1	-5%	-13%
47	O=C1c2ccccc2CSc2c(O)cccc21	18%	-11%
48	Cc1ccccc1Nc1n[nH]c(C)c1[N+](=O)[O-]	-17%	-17%
49	CC(=O)Nc1ccc(CCNC(=O)c2ccc3ccccc3c2O)cc1	13%	i
50	CCOC(=O)N1CCN(C(=S)Nc2cccc(C)c2C)CC1	-6%	-10%
51	CCc1nc2ccc(C(=O)NCCCN3CCCC3=O)cn2c1N(C)C(=O)COc1ccccc1	-7%	5%
52	Cn1cc(CN2CCc3c([nH]c4ccccc34)C2C(C)(C)C)cn1 (stereo not drawn)	-17%	?
53	CC(C)(C)c1ccc(C(=O)NCC(c2ccco2)S(=O)(=O)c2ccccc2)cc1 (stereo not drawn)	-14%	-7%
54	O=C(Cn1c(=O)n(-c2ccccc2Cl)c(=O)c2sc3ccccc3c21)NC1CCCC1	-9%	-10%
55	Cc1nc(CC(=O)Nc2cc(Cl)ccc2C)cs1	-9%	0%
56	COc1ccc(NC(=O)CSc2nc(-c3ccc(OC)cc3)cc(=O)[nH]2)cc1	2%	-10%
57	Cc1nc(NCCc2ccc(F)cc2)c(C#N)c(C)c1[N+](=O)[O-]	-21%	-2%
58	COCCn1c(CN2CCc3ccccc3C2)nc2c1c(=O)n(C)c(=O)n2C	3%	-9%
59	N=c1c2c(ncn1Cc1ccco1)Oc1c(ccc3ccccc13)C2c1ccccc1 (stereo not drawn)	?	-30%
60	CCCCN(CC)CCNC(=O)CCn1cnc2onc(-c3ccc(F)cc3)c2c1=O	7%	6%

# Later entries
no.	molecule	Vaccinia Venus	Vaccinia mCherry
61	O=C(CCN1C(=O)/C(=C/c2ccccc2Cl)SC1=S)NC1=NCCS1	-6%	-3%
62	Clc1ccc2c(N/N=C/c3cccc(Br)c3)ccnc2c1	?	?
63	O=c1c2ccccc2c(-c2ccc(O)cc2)nn1-c1cccc(C(F)(F)F)c1	11µM*	?
64	COc1ccc(Cn2c(=S)[nH]c3cc(C(=O)N4CCCCC4)ccc3c2=O)cc1	-5%	3%
65	O=C(NC1CCCC1)c1cnn2c(C(F)(F)F)cc(-c3ccco3)nc12	-27%	?
66	O=C(NCC1CCCO1)c1cccc2c1C(=O)c1ccc(N3CCC(Cc4ccccc4)CC3)cc1S2(=O)=O (stereo not drawn)	14%	?
67	O=C(CCN1C(=O)[C@@H]2Cc3ccccc3CN2C1=O)N[C@H](Cc1ccccc1)C(=O)O	-7%	5%
68	Cc1ccc[n+](-c2nc([O-])sc2C=O)c1	4%	10%
69	CCN(CC)C(=O)Oc1nnc(SC(C)C)n1-c1ccc(Cl)c(Cl)c1	-6%[7.34 µM]	-2%[7.34 µM]
70	Cc1nc(SCC(=O)Nc2cccc(Cl)c2)n[nH]1	-16%	-8%[1.46 µM]
71	CC(C)(C)OC(=O)NCCC(=O)Oc1ccc2ccc(=O)oc2c1	9%	-10%
72	CCCCN(CC)CCNC(=O)c1cc2c(=O)oc3ccc(C)cc3c2s1	-8%	0%
73	CCc1ccc(C(=O)Nn2cnc3ccccc3c2=O)cc1	-4%	-8%
74	CCOC(=O)/C=C/c1cccc(OC)c1O	-18%	-3%
75	CC(=O)Nc1c(Cl)c(Cl)c2c(c1Cl)Cc1cc(Cl)ccc1-2	-12%	i
76	Cc1ccccc1C(=O)c1cccn1CC(=O)NCc1ccc(F)cc1	-9%	i
77	COc1ccc(-n2nnnc2SCC(=O)NC2CCCC2)cc1OC	8%	-3%
78	CCc1ccccc1NC(=O)c1cc(S(=O)(=O)N2CCCc3ccccc32)ccc1F	-11%	-8%
79	Cc1ccc(NC(=O)c2cc(S(=O)(=O)NCC3CCCO3)ccc2F)cc1 (stereo not drawn)	-23%	i
80	CCc1c(C)sc(NC(=O)CN2CCN(C(=O)c3ccco3)CC2)c1C(=O)OC	-18%	-8%
81	COc1cc(C(=O)NNC(=O)/C=C/c2ccco2)cc(OC)c1OC	-4%	-14%
82	COc1ccc(C(=O)NCCc2sc(-c3ccc(Cl)cc3)nc2C)c(OC)c1	-3%	-7%
83	CC(=O)N(NC(N)=O)C(C)CC(=O)C1C(C)C=CCC1(C)C (stereo not drawn)	-10%	-4%
84	CC1CC=C2C(C#N)=C(N)C(C#N)(C#N)C(c3cccs3)C2C1 (stereo not drawn)	1%	-14%
85	Cc1ccc(S(=O)(=O)N(C)c2ccc(OCC(=O)N3CCCC(C(F)(F)F)C3)cc2)cc1 (stereo not drawn)	-16%	-5%
86	CN(C)c1ccc(/C=C2/CCc3ccccc32)cc1	-22%	7%
87	CC(C)CCNCC1OCc2ccccc2CO1	-11%	-7%
88	O=c1cc(N2CCOCC2)oc2c(-c3ccccc3)cccc12	?	-23%
89	CCN(CC)CCOC(=O)c1c(C)n(C)c2ccc(OC)cc12	-11%	-1%
90	CCOc1ccccc1-c1cc(C(=O)N2CCOCC2)c2ccccc2n1	-3%	i

# Further records follow:
No. | SMILES | Vaccinia Venus | Vaccinia mCherry
91 | COc1ccc(C)cc1NS(=O)(=O)c1ccc(NS(=O)(=O)c2ccc(NC(C)=O)cc2)cc1 | -17% | -13%
92 | Cc1ccnc2c1NC(=O)c1cccnc1N2C1CC1 | 3% | -8%
93 | C=C(C)c1cccc(C(C)(C)NC(=O)Nc2ccc(C(N)=O)cc2)c1 | -14% | i
94 | COc1cc(NC(=O)c2c(F)cccc2F)c(Cl)cc1Cl | -21% | -6%
95 | CC1CN(S(=O)(=O)c2ccccc2)CN1C(=O)N1CCOCC1 (stereo not drawn) | -7% | i
96 | CCOC(=O)c1ccc(Nc2cc(C)nc(-c3ccccc3)n2)cc1 | ? | ?
97 | CCCC(C)(C)C(=O)N1CCC1(C)C(=O)Nc1ccc2c(c1)OCCO2 (stereo not drawn) | 9% | 6%
98 | NC(=O)[C@@H]1CCCCNc2c(F)cc([N+](=O)[O-])cc2C(=O)N[C@@H](CC(=O)O)C(=O)NCC(=O)N1 | -3% | i
99 | COC(=O)C1=C(c2c(C)noc2C)C[C@@H]2CC[C@H]1N2C(=O)N1CCC(O)(c2ccc(Cl)cc2)CC1 | -17% | -7%
100 | O=C(CN1CCN(C(=O)C2CC2)CC1)Nc1cc(C(F)(F)F)cc(C(F)(F)F)c1 | -7% | 6%
101 | CSc1ncc(Br)c(N2CC2)n1 | -14% | i
102 | CC1C(c2ccccc2)OCCN1C(=S)NC(=O)c1ccccc1 (stereo not drawn) | -1% | i
103 | Cc1cccc(N2C(=O)N3[C@H](c4ccc(Br)cc4)[C@@H]4C(=O)N(C(C)(C)C)C(=O)[C@@H]4[C@]3(C)C2=O)c1 | -10% | i
104 | CCOC(=O)[C@]12Cc3c(cc(OC)c(OC)c3OC)[C@H]1N(CCC(=O)OC)C(=O)c1cc(OC)ccc12 | -26% | -19%
105 | CCn1c2ccccc2c2cc(NC(=O)c3ccc(Br)o3)ccc21 | -5% | -19%
106 | COc1ccc(C2C3C=CCC(c4cccc(-c5ccc(C)cc5)c4)C3C(=O)N2Cc2ccccc2)cc1Cl (stereo not drawn) | -11% | -16%
107 | COc1ccc(-c2coc3c(C(=O)NCc4cccs4)cccc23)c(C)c1 | ? | ?
108 | CCOC(=O)c1cc(NCc2cccs2)ccc1N1CCOCC1 | -7% | ?
